# Screening results from PubChem BioAssay.
# AmpC nodet inh = blocks E. coli AmpC beta-lactamase in absence of detergent; AID 585; P00811; AmpC nitrocefin hydrolysis, absorbance 480 nm, no detergent; potencies from a single point are estimates; 71,000 compounds, 1.8% hits; Potency, µM (titrated, usually from 28.7 µM), for inactives: at the top dose activity change, negative = inhibition; active = falling curve, for most hits resting on a single point; inconclusive = weak or doubtful change; inactive = flat or rising curve; also: % of control where 0% means no effect; about half of the hits show no inhibition at the top dose; a quarter of the inactives give rising signals
# Target sequence (P00811 whole entry, looked up): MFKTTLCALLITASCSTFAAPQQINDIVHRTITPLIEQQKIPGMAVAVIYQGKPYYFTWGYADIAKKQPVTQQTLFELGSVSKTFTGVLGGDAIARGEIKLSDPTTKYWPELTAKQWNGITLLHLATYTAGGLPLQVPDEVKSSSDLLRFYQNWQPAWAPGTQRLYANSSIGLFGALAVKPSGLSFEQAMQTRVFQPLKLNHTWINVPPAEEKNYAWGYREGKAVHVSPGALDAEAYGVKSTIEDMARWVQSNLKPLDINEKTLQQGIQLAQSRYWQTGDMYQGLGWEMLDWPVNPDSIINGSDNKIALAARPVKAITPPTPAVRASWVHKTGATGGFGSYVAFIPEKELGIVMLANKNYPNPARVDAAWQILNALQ
#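 AmpC, 20 mM phosphate pH 7.0; 15 min cpd preinc, RT; start with nitrocefin (800 uM stock); A480 kinetic read, 20 s intervals, 4 min. No-enzyme wells = negative control.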
# * marks the source's active call; other numbers are inactive results; ? = inconclusive; [ ] = remark or other dose. Potency is read from the fitted curve at half-maximal effect. Not all compounds are listed; rates above refer to the full screens.
SMILES,AmpC nodet inh
O=C(COC(=O)C1CC(=O)N(c2ccccc2)C1)c1ccccc1 (centres undefined),21.7%
O=c1[nH]cnc2scc(C3COc4ccccc4O3)c12 (centres undefined),16.9%
CSc1ccccc1-n1nnnc1SCC(=O)NCc1cccs1,-11.5%
CC(=O)c1ccc([N+](=O)[O-])cc1,-6.7%
Nc1nc(N)c2nn(-c3ccc(C(=O)O)cc3)nc2n1,5.2%[5.75 µM]
CC(=O)c1cc(F)c(N2CCN(C(=O)Cc3ccccc3)CC2)cc1C,46.3%
CN(C)c1oc(-c2ccccc2)nc1C#N,8.0%
CCN(CC)Cc1c(C(=O)OC)nnn1-c1nonc1N,12.6%
O=C(NCc1ccccc1)c1cccc(S(=O)(=O)N2CCOCC2)c1,16.7%
O=C(Cn1ncc2c(=O)oc3ccccc3c21)N1CCCN(Cc2ccccc2F)C1,3.98µM*[single pt active]

# By substructure: the entries above with sulfur
SMILES,AmpC nodet inh
O=c1[nH]cnc2scc(C3COc4ccccc4O3)c12 (centres undefined),16.9%
CSc1ccccc1-n1nnnc1SCC(=O)NCc1cccs1,-11.5%
O=C(NCc1ccccc1)c1cccc(S(=O)(=O)N2CCOCC2)c1,16.7%

# Carrying on.
SMILES,AmpC nodet inh
CCC(c1nnnn1C(C)(C)CC)N(CCCO)Cc1cc2cc(C)cc(C)c2[nH]c1=O (centres undefined),128.1%
Cc1cc(C)n2cc(CSc3nnc(-c4ccccc4)o3)nc2n1,39.7%
O=C(NCCN1CCCC1)c1ccc(CS(=O)(=O)c2c(Cl)cccc2Cl)o1,3.98µM*[single pt active]
COCc1nnc(NC(=O)C(C)C)s1,-2.8%
O=C(CSc1nnc(CNC(=O)c2ccccc2F)o1)NCCc1ccccc1,0.9%
O=S(=O)(c1ccccc1)N1C2CCC1CC(O)(c1cccnc1)C2 (centres undefined),2.4%
Cc1ccc(C(=O)NCc2occc2C(=O)O)o1,-8.4%
CCOc1ccc(NC(N)=O)cc1,0.3%
O=C(CSc1nnnn1C1CCCCC1)NCc1ccco1,1.8%
CC(C)C1(C)N=C(c2nc3ccccc3cc2C(=O)O)NC1=O (centres undefined),-18.1%
COc1ccc(N(Cc2ccco2)C(=O)c2ccccc2F)cc1OC,26.1%
Cc1cc(NC(=O)c2ccc(S(=O)(=O)N3CCCC3)cc2)nc2c1c(=O)oc1ccccc12,34.0%
O=[N+]([O-])c1ccc(Nc2nc3ccccc3s2)cc1,-25.8%[5.75 µM]
Cc1cccc(CSC2=NCCN2C(=O)c2ccco2)c1,23.8%
CCc1cc2cc(C(=O)N3CCN(Cc4ccccc4)CC3)sc2s1,76.2%
O=C(O)CCCCC(=O)O,12.7%
CN(C)N=O,-1.8%
CC1=C(C(=O)OC2CCCCC2)C(c2ccc(C)o2)C2=C(CCCC2=O)N1 (centres undefined),64.2%
O=C(CCc1ccccc1)Nc1ncn[nH]1,1.9%
O=C(NCc1ccccn1)c1ccc(NC(=O)c2ccco2)cc1,4.8%
CCN(CC)CCNCc1ccc(-c2ccc(Cl)cc2)o1,18.2%
COc1ccc(S(=O)(=O)N2CCN(Cc3ccccc3)CC2)cc1,18.8%
Cc1cccc(S(=O)(=O)Nc2nc3ccccc3nc2NCc2ccco2)c1,2.3%
COCC(=O)N1CCC2(CCN(Cc3ccccc3)CC2)CC1,3.7%
O=C(O)c1ccc(N2CCCC2=O)cc1,-14.0%
Cn1c(=O)oc2cc(S(=O)(=O)Nc3cccc4c3CCCC4)ccc21,-5.5%
Cc1cccc(N(CC(=O)NC2CCCCC2)C(=O)CCC(=O)Nc2ccccn2)c1,48.8%
Cc1nc2ccccc2c(=O)n1NC(=O)c1c(O)c2c(n(CC(C)C)c1=O)CCCC2,81.7%
CC(OC(=O)CCc1nc2ccccc2c(=O)[nH]1)C(=O)NCc1ccc2c(c1)OCO2 (centres undefined),-11.5%
COC(=O)C1=CN(C2CC2)C=C(C(=O)OC)C1c1ccccc1OC,74.5%
CCOC(=O)Cc1csc(NC(=O)CSc2nnc(-c3ccc(C)cc3)o2)n1,20.5%
CCC(NC(=O)c1ccccc1NC(=O)c1ccco1)C(=O)O (centres undefined),-11.3%
CC(=O)c1cccc([N+](=O)[O-])c1,-2.1%
COC(=O)c1ccc2c(=O)n(Cc3ccco3)c(SCC(=O)Nc3ccc(C)c(Cl)c3)nc2c1,12.6µM*
Nc1c(Sc2ccccc2)c(=O)[nH]c(=O)n1Cc1ccccc1,-2.8%
CCOC(=O)c1ccccc1NC(=O)Cn1cnc2c(cnn2-c2ccccc2)c1=O,12.4%
Cc1ccc(NC(=O)N(CCCN2CCOCC2)Cc2cc3cc4c(cc3[nH]c2=O)OCO4)cc1,87.3%
CCCC(CCC(=O)OC)(C(=O)OCC)c1csc(N)n1 (centres undefined),10.6%
Cc1ccc(-n2c(SCC(=O)Nc3cc(C)on3)nc3c(c2=O)SC(C)C3)cc1 (centres undefined),77.4%
COc1ccc(-c2nnc(NC(=O)c3ccc(S(=O)(=O)N4CCc5ccccc5C4)cc3)o2)cc1,-13.4%
Nc1nonc1C(=O)NCCNCc1cc(Br)ccc1OCc1ccccc1F,-14.5%
CCOC(=O)CSc1nnc(CNc2ccc(F)cc2)o1,0.5%
COCCn1c(Cc2ccccc2)nnc1SCC(=O)NC(C)(C)C,8.3%
CC1(C)N=C(N)N=C(N)N1c1cccc(OCc2cccc(N)c2)c1,-4.2%[5.75 µM]
O=C(O)CN1CCOCCOCCN(CC(=O)O)CCOCCOCC1,8.1%
Cc1cc(NC(=O)COc2cccc(C)c2C)no1,-9.1%
COc1ccccc1NC(=O)C1=C(C)Nc2ncnn2C1c1ccccc1C (centres undefined),9.7%
O=C(c1csc(Nc2ccccc2Cl)n1)N1CCCC1,15.9%
CC1C2CC(C(S(=O)(=O)N3CCOCC3)C2=O)C1(C)C (centres undefined),14.6%
Cc1ccc(S(=O)(=O)NCCN=C(CN2CCOCC2)NS(=O)(=O)c2ccc(C)cc2)cc1,102.8%

# New compounds follow.
SMILES,AmpC nodet inh
CCOC(=O)C1=C(C)NC2=C(C(=O)CCC2)C1c1cccnc1 (centres undefined),5.7%
O=C(c1ccc(S(=O)(=O)N2CCOCC2)cc1)N1CCN(c2ccc(F)cc2)CC1,55.6%
COc1ccccc1NC(=O)CSc1nnc(Cc2ccccc2)o1,6.3%
CCc1cccc(C)c1NC(=O)CCCC(=O)O,-9.1%
Cc1nc2ccc(S(=O)(=O)NC(C(=O)N3CCn4c3nc3ccccc34)C(C)C)cc2s1 (centres undefined),94.3%
COC1=CC(=O)C[C@@H](C)[C@@]12Oc1c(Cl)c(OC)cc(OC)c1C2=O,15.7%
Cc1[nH]n2c(=O)c3c(nc2c1-c1ccccc1)CCC3,-9.4%
O=c1cc(-c2cccc(O)c2)oc2cc(O)ccc12,-17.1%
O=C(c1cc(S(=O)(=O)N2CCOCC2)ccc1F)N1CCN(Cc2ccccc2)CC1,101.4%
Cc1ccc(NC(=O)c2ccc(OC(=O)c3ccco3)cc2)cc1,13.2%
CC(=O)c1ccc(NC(=O)N[C@@H](Cc2ccccc2)C(=O)O)cc1,-6.6%
O=C1CCC(C(=O)N(c2ccccc2)C2(C(=O)NC3CCCCC3)CCCCC2)N1 (centres undefined),48.6%
CC(=O)Oc1c(Cl)c(N2CCOCC2)c(OC(C)=O)c2ccccc12,92.0%
Cc1nc(=O)c(-c2ccccc2)c(C)n1Cc1ccccc1,8.1%
C=CCNc1nc(Nc2ccc(OC)cc2OC)nc(OCC)n1,-10.5%
CCOc1ccccc1NC(=O)CN(c1ccc(OC)cc1)S(=O)(=O)c1c(C)noc1C,39.7%
CC(C)CC1NC(=O)N(CC(=O)N2CCN(S(=O)(=O)c3ccc4ccccc4c3)CC2)C1=O (centres undefined),109.7%
CCOC(=O)C(NC(C)=O)(Nc1ccc(S(=O)(=O)Nc2nccs2)cc1)C(F)(F)F (centres undefined),2.0%
O=C(CCCn1c(=O)[nH]c2ccccc2c1=O)N1CCN(c2ccccn2)CC1,3.16µM*[single pt active]
COc1ccccc1CN1CCC2(CCNCC2)CC1,98.6%
O=C(O)CCc1ccc(-c2cccs2)n1NC(=O)c1ccc(Cl)cc1,-15.1%
c1cncc(CNc2cc(-c3ccoc3)ncn2)c1,21.4%
NC(=Nc1ccccc1)NC(=O)c1nc(Cl)c(N)nc1N,-7.5%
O=C1[C@@H]2C(Cc3ccc(O)cc3)NC3(C(=O)Nc4ccc(F)cc43)[C@@H]2C(=O)N1c1ccccc1 (some centres undefined),1.9%
Cc1ccc(N2CC(C(=O)NCCc3ccc(S(N)(=O)=O)cc3)CC2=O)cc1 (centres undefined),13.7%
O=C(c1ccco1)N1CCC2(CCCN(c3ccccc3)C2)CC1,-13.3%
Cc1nnc(SCc2ccccc2)n1N,-8.4%
COc1ccc(S(=O)(=O)N2CCC(C(=O)Nc3ccc(OC)c(OC)c3)CC2)cc1C,36.7%
O=C(CN1C(=O)COc2ccccc21)Nc1ccc2c(c1)OCCO2,-7.5%
CCCC(=O)Nc1ccc(N2CCN(C(=O)c3ccccc3C)CC2)cc1,29.0%

# The final 6 entries of the section before lead into the next.
SMILES,AmpC nodet inh
Cc1ccc(N2CC(C(=O)NCCc3ccc(S(N)(=O)=O)cc3)CC2=O)cc1 (centres undefined),13.7%
O=C(c1ccco1)N1CCC2(CCCN(c3ccccc3)C2)CC1,-13.3%
Cc1nnc(SCc2ccccc2)n1N,-8.4%
COc1ccc(S(=O)(=O)N2CCC(C(=O)Nc3ccc(OC)c(OC)c3)CC2)cc1C,36.7%
O=C(CN1C(=O)COc2ccccc21)Nc1ccc2c(c1)OCCO2,-7.5%
CCCC(=O)Nc1ccc(N2CCN(C(=O)c3ccccc3C)CC2)cc1,29.0%
NC(=O)C[C@@H]1N[C@]2(C(=O)Nc3ccccc32)[C@@H]2C(=O)N(C3CCCCC3)C(=O)[C@H]12,-7.9%
O=C(CSc1nn(-c2ccccc2)c(=S)s1)Nn1cnnc1,-8.1%
O=C1Nc2cc(C(=O)N3CCN(Cc4ccccc4)CC3)ccc2SC1N1CCOCC1 (centres undefined),122.6%
O=C(O)c1cccc(SSc2cccc(C(=O)O)c2)c1,0.0%[5.75 µM]
Cc1ccc(CCN2CC(C(=O)NCc3ccco3)CC2=O)cc1 (centres undefined),12.2%
COc1ccc(-c2cc(O)cc(O)c2)cc1,-14.7%
CCOc1ccc(-n2nnnc2SCC(=O)c2ccccc2)cc1,-6.3%
COc1ccccc1OCC(=O)Nc1cccc(C(=O)N2CCOCC2)c1,12.4%
COc1ccc(Cc2nnc(SCC(=O)NCC3CCCO3)o2)cc1 (centres undefined),11.3%
Cc1oc(-c2cccs2)nc1CS(=O)CC(=O)NCCCOC(C)C (centres undefined),5.2%
CCOc1ccc2[nH]c(=O)c(CN(CCO)C(=O)CC)cc2c1,10.0%
Cc1ccc(C)c(N2CCN(S(=O)(=O)c3ccc4c(c3)CCC(=O)N4)CC2)c1,83.4%
N#CCCn1c(=O)c(-c2cc(F)cc(F)c2)nc2cnc(Nc3ccccc3)nc21,1.0%
CC(C)(C)C(=O)COC(=O)c1cccc(NC(=O)c2ccco2)c1,10.2%
O=C(NCc1cccc(C(F)(F)F)c1)C1CCCN(c2ncccn2)C1 (centres undefined),32.4%
COc1ccc(NC(=O)c2ccc3c(c2)OCO3)cc1Cl,?
C=CCn1c(-c2ccoc2)n[nH]c1=S,-19.4%
CCc1ccccc1NC(=O)CCc1nc(-c2ccc(C)cc2)no1,-3.3%
O=C(c1ccc(NC2=NC3CS(=O)(=O)CC3S2)cc1)N1CCc2ccccc2C1 (centres undefined),42.4%
CCC(=O)c1ccc(OCC(O)CN2CCN(S(=O)(=O)N3CCCCC3)CC2)cc1 (centres undefined),101.8%
CCOc1ccc(Nc2oc(-c3cccs3)nc2C#N)cc1,-9.2%
O=C(CCNS(=O)(=O)c1ccccc1F)NCc1ccc2c(c1)OCO2,-4.0%
CC(C)CN1CC2(CCN(C(=O)c3csnn3)CC2)C1,44.6%
COc1cccc(-n2c(Cc3cc(=O)[nH]c(=O)[nH]3)nnc2SCC(=O)Nc2ccccc2)c1,18.5%
CC=C(/C(=C/C)c1ccc(O)cc1)c1ccc(O)cc1,-22.0%[12.8 µM]
COc1ccc2cc(C(c3nnnn3CC3CCCO3)N3CCOCC3)c(=O)[nH]c2c1 (centres undefined),14.2%
O=C(COC(=O)c1cnccn1)c1ccc(OC(=O)c2ccccc2)cc1,-6.1%
CCC(Sc1nc2c(cnn2-c2ccc(Cl)cc2)c(=O)[nH]1)C(=O)OC (centres undefined),-1.0%
CCOc1cc(S(=O)(=O)NCCc2cccc(C)c2)c(OCC)cc1-n1cnnn1,42.5%
C=CCc1cccc2cc(C(=O)N3CCN(C(=O)c4ccco4)CC3)c(=O)oc12,60.9%
Cc1ccc(C)c(NC(=O)CCN2CCOCC2)c1,0.2%
Cc1ccc2c(c1)nnn2C1CCN(S(=O)(=O)c2ccc(C(=O)NC3CCCC3)cc2)CC1,46.6%
CSc1nc(N)nc(SCC(=O)c2ccccc2)c1C#N,-18.6%
Cc1ccc(NC(=O)CCn2nc(C)cc2C)c(C)c1,1.4%
CCOC(=O)c1cc(=O)n2[nH]c(-c3ccc(C)cc3)cc2n1,-19.9%
N#Cc1ccc(CN2CC[C@@]3(CCCN(C(=O)Oc4ccccc4)C3)C2)cc1,46.4%
COCCCNC(=O)Cn1ncc2ccsc2c1=O,-5.0%
Cc1csc(NC(=O)c2cccs2)n1,0.5%
O=C(COC(=O)C12CC3CC(CC(O)(C3)C1)C2)Nc1ccccc1OC(F)F,17.1%
CCc1cc2c(N[C@@H](C)C(=O)O)ncnc2s1,-5.1%
CCCn1c(-c2ccc(F)cc2)nc2c(NC3CC4CCC(C3)N4C)nc(C)nc21 (centres undefined),43.9%
COc1ccc(N(CC(=O)Nc2ccc(OC)c(Cl)c2)S(=O)(=O)c2c(C)noc2C)cc1,-3.4%
CC(N)Cc1c[nH]c2cc3c(cc12)OCCO3 (centres undefined),6.9%
